Sa RN4220 lethal: kills Staphylococcus aureus RN4220 | AID 1259311 | inhibition, % (no concentration beside the values) | S. aureus RN4220 growth, OD600, 16 h | actives 0.33% (n = 330,000);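 active means z-score of -3 or lower and OD600 up to 0.18 on both plates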;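 further: plate controls were untreated cells for no effect and reference antibiotic for full effect; stock transfer was 100 nL into about 80 µL; one replicate is shown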
Bead autofluor: counter-screen for toxin protease inhibitors: compound fluorescence | compound autofluorescence counterscreen, microsphere flow cytometry; hits give high values | fluorescence intensity (no concentration beside the values) | actives 3.1% (n = 360,000) | AID 624483;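 active means at least 3 SD above the mean of all compounds, about 16000 in these data; inconclusive means too few beads counted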;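 further: 100 nL of 1 mM stock went into each well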
Sa ugtP lethal: kills S. aureus RN4220 lacking UgtP; S. aureus RN4220 ugtP deletion, OD600 growth, 16 h; some inactives read as strong as hits; growth inhibition, % (concentration not given with the values); actives 0.54% (n = 330,000);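 active means z-score under -3 and OD600 up to 0.15 on both plates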;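 further: plate controls were untreated wells for no effect and antibiotic for full effect; wells of about 80 µL received 100 nL stock; the first replicate is given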
Mtb hypoxia inh: inhibitors of hypoxia-regulated fluorescent reporter in Mycobacterium tuberculosis | AID 1159583 | M. tuberculosis hypoxia-regulated fluorescent reporter, fluorescence | fluorescence inhibition, % (test concentration not listed) | actives 0.1% (n = 300,000);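 active means 35 to 45% if threefold the growth effect, above 45% if 1.5-fold the growth effect; inactive means the rest, general growth blockers included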;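 further: wells of about 50 µL received 100 nL stock; 0% = vehicle wells and 100% = reference inhibitor wells; whole bacteria with a GFP reporter of the hypoxia response; strong numbers were not always called active; many hits fall short of the cut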
BJeLR lethal: BJeLR cell viability loss; BJeLR (HRASV12) viability, CellTiter-Glo ATP luminescence, 48 h; reference of the scale not given here; inhibition, % (test concentration not listed); actives 0.17% (n = 300,000);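 active means replicate mean above 50%; inconclusive means above 50% but judged a plate artefact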;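 further: 50 nL library stock added to about 25 µL; numbers are from one replicate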
PrP UTR inh: inhibition of PrP 5' UTR reporter expression; cell-based PrP 5' UTR mRNA reporter, plate reader; inhibition, % (no concentration beside the values); actives 0.35% (n = 340,000);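 active means every replicate at 50% or more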;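 further: 0 = median of the neutral control wells; tested in H4 reporter cells; numbers are from one replicate; inactives centre near -14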
Mtb hypoxia inh growth: also measured in Mtb hypoxia inh; calls as there; growth inhibition, %; measured here: M. tuberculosis growth (absorbance);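 0% = vehicle and 100% = reference antibiotic; read after six days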
The depositor's hits bear a star; ? = inconclusive; . = no result given. Compounds were not picked by outcome; about 4% have a hit in one of these screens.

Start of the listing, in advance:
Below each SMILES: Sa RN4220 lethal, Bead autofluor, Sa ugtP lethal, Mtb hypoxia inh, Mtb hypoxia inh growth, BJeLR lethal, PrP UTR inh
CC(C)CCNC(=O)CN(C(=O)CCC(=O)Nc1nccs1)c1ccc2c(c1)OCCO2
 : -0.2, 4111, -2.7, 5.3, -2.3, -4.7, 7.4
CCCCn1c(N)c(N(CC(C)C)C(=O)c2ccc(C)c(S(=O)(=O)N3CCCCC3)c2)c(=O)[nH]c1=O
 : 1.3, ?, 0.1, 3.2, 10.8, -3.8, -3.5

All compounds of this part, repeating the preview:
Below each SMILES: Sa RN4220 lethal, Bead autofluor, Sa ugtP lethal, Mtb hypoxia inh, Mtb hypoxia inh growth, BJeLR lethal, PrP UTR inh
CC(C)CCNC(=O)CN(C(=O)CCC(=O)Nc1nccs1)c1ccc2c(c1)OCCO2
 : -0.2, 4111, -2.7, 5.3, -2.3, -4.7, 7.4
CCCCn1c(N)c(N(CC(C)C)C(=O)c2ccc(C)c(S(=O)(=O)N3CCCCC3)c2)c(=O)[nH]c1=O
 : 1.3, ?, 0.1, 3.2, 10.8, -3.8, -3.5
COc1ccc(NC(=O)CN(C)C(=O)CCCc2nc3ccccc3c(=O)[nH]2)cc1
 : 2.7, 7396, 1.7, 3.8, -2.5, -17.2, -11.2
COc1ccc(Br)cc1CN1CCN(C(=O)Cc2ccccc2)CC1
 : 1.8, 3342, -3.7, 10.2, 12.4, 3.2, -7.4
Cc1oc(-c2ccc(Cl)cc2)nc1CS(=O)CC(=O)NC1CCCC1 (stereo not drawn)
 : 3.1, 5471, 2.2, -9.8, 6.2, 4.4, -5.8
CCc1ccc(C(=O)OCC(=O)Nc2cccc(S(=O)(=O)NC3=NCCCCC3)c2)cc1
 : 2.3, 2135, 0.8, 8.6, 11.7, -0.2, -18.7
Cc1cccc(NC(=O)CN2C(=O)NC(Cc3ccccc3)C2=O)c1 (stereo not drawn)
 : 12.8, 2832, 5.2, ., ., 1.1, -14.7
O=C(NCc1ccc(Cl)cc1)C1CCN(S(=O)(=O)c2cc([N+](=O)[O-])ccc2Cl)CC1
 : -4.0, 2187, -1.5, 0.7, 12.0, 2.1, -6.7
OC1(c2ccccc2)c2ccccc2-c2ncccc21 (stereo not drawn)
 : 8.3, 4282, 1.7, 9.8, 6.3, 2.8, 8.6
COc1ccc(-n2c(SCC(=O)Nc3nccs3)nnc2-c2ccccc2)cc1
 : 8.8, 10003, -7.2, 5.2, 3.4, -2.3, -13.0
O=C1ON=C(c2ccc(Cl)c([N+](=O)[O-])c2)/C1=C/c1cccc([N+](=O)[O-])c1O
 : 4.0, 3983, 0.8, 11.4, 4.4, ., -13.7
COc1ccc(C=NNc2nc3ccccc3o2)cc1O
 : 4.2, ., -5.1, 4.3, 5.1, ., .
O=c1cc(-c2ccccc2[N+](=O)[O-])oc2ccccc12
 : 11.1, 3958, 13.9, 13.2, 12.0, 10.4, -10.6
CCSc1nc2sc3c(c2c(=O)n1-c1ccccc1)CCN(C)C3
 : 4.5, 4805, 53.1, 10.7, -3.0, 0.0, -6.6
O=C(c1cccs1)N1CCN=C1SCc1ccccc1
 : -2.4, 3601, -0.8, ., ., 3.0, -7.2
OCCC1CN(Cc2cccc3nccnc23)CCN1C1CCCC1 (stereo not drawn)
 : 7.7, 3927, 2.5, 0.1, -2.2, 2.8, -22.8
CC(=O)Nc1ccc(S(=O)(=O)N(C)CC(=O)N/N=C/c2cccs2)cc1
 : ., 3763, ., ., ., -3.2, -15.8
O=C(COc1ccc(F)cc1)N(CC1=CCS(=O)(=O)C1)c1ccccc1
 : 3.4, 3838, 14.8, ., ., -1.4, -8.4
CN(C)S(=O)(=O)c1cccc(NC(=O)CNC2CCCCC2)c1
 : 2.8, 3722, -4.4, 13.0, 9.7, 12.9, -1.6
Cc1cnc(NC(=O)[C@H](C)N2C(=O)C3CCCCC3C2=O)s1 (stereo partly drawn)
 : 10.6, 3362, 6.0, -4.7, 7.1, -18.5, 3.0
CCOC(=O)/C=C1\NC2(CCCCC2)Cc2cc(OC)c(OC)cc21
 : 1.5, 11093, 8.8, 7.5, 2.4, -3.3, -26.6
COc1ccc(C(=O)NCC(=O)Nc2cccc(S(=O)(=O)N3CCCC3)c2)cc1
 : 6.7, ., 5.7, -2.2, 3.4, ., -0.6
O=C(NCc1cccs1)[C@@H]1CCCN1S(=O)(=O)c1ccccc1F
 : 4.7, 3925, -0.5, 9.8, 6.6, ., -20.0
CN=C1S/C(=C\c2c(OC)cc(OC)cc2OC)C(=O)N1C
 : 2.4, 5757, 3.5, 6.5, 8.1, -4.7, -12.2
CN(C1CCCCC1)S(=O)(=O)c1ccc(SCC(=O)NC(C)(C)C)nc1
 : 6.9, 8564, 3.3, -0.3, 2.5, ., -19.5
CC(C)(C)CC(C)(C)NCC(O)COc1c(F)cc(Br)cc1F (stereo not drawn)
 : 1.6, 2074, -13.9, ., ., -0.1, -15.8
Cc1cccc(NC(=O)Cn2cnc3sc(C)c(S(=O)(=O)N4CCC(C)CC4)c3c2=O)n1
 : 1.8, 4008, -6.3, 17.4, 10.6, 3.3, -16.1
Cc1cccc(NC(=O)Nc2cc(C)cc(C)n2)c1
 : 3.4, 3480, -3.9, -3.3, 2.7, -0.2, -112.7
Cc1cc2cc(CNC(=O)CCC(=O)O)ccc2n1C
 : 4.6, 2670, -0.8, 16.2, 8.3, -8.7, -1.8
COc1ccc(-c2cc(C(=O)NCCCN3CCOCC3)c3ccccc3n2)cc1OC
 : 0.9, 5704, 4.0, 6.3, 2.8, 0.0, -2.3
COC(=O)Cc1c(C)c2ccc(OC(=O)c3ccccc3)cc2oc1=O
 : 2.2, 8549, 3.8, 2.3, 7.3, 3.0, .
Cc1cc(C)c2cc(C(=O)Nc3ccc(C)c(F)c3)[nH]c2c1
 : -2.4, 3551, -6.3, ., ., -1.4, -21.2
CC(=NNC(=O)c1cc(-c2cccc([N+](=O)[O-])c2)n[nH]1)c1ccc(Cl)cc1
 : -0.3, ., -5.8, -1.6, 5.2, ., .
CCOC(=O)C1CCCN(C(=O)c2ccc(CS(=O)(=O)c3ccc(C)cc3)o2)C1 (stereo not drawn)
 : 3.7, 5900, 4.3, ., ., 7.3, -3.6
CCOc1ccc(/C(O)=C2/C(=O)C(=O)N(c3ncccn3)C2c2ccc(C)cc2)cc1 (stereo not drawn)
 : 1.2, 3767, 7.0, -6.3, -11.4, -3.0, -17.4
O=C(CN1CCN(c2ccc(F)cc2)CC1)c1ccc2c(c1)OCO2
 : 0.8, 2219, 3.5, ., ., 6.4, 7.9
CC(C)OC(=O)CSc1nnc(-c2ccccn2)n1-c1ccccc1
 : 6.5, 3173, 9.1, 9.5, 6.0, -9.2, -17.8
Cc1[nH]c(C(=O)O)c(C#N)c1C(=O)c1ccccc1
 : -3.5, 3064, 6.4, 9.9, 3.7, -15.4, -18.8
O=C(CN1CCN(c2ccccn2)CC1)Nc1cccc(C(F)(F)F)c1
 : 1.8, 6778, -6.4, -74.5, -8.6, 17.5, -10.4
Cc1ccccc1Nc1cc(C)c2c(O)cccc2n1
 : 3.0, 6162, -0.2, -21.9, -16.8, 4.8, -19.3
CCOc1ccc(-n2nc3ccc(N)cc3n2)cc1
 : -1.1, 3327, -2.3, 5.7, 9.0, -0.3, 20.6
CCOC(=O)c1c(C)n(CC(O)CN(CC)CC)c2cc(Br)c(OC)cc12 (stereo not drawn)
 : 16.6, 5916, 1.4, 5.9, 1.5, -0.7, -15.7
CC(=O)c1cc(-c2ccccc2)n(CCC(=O)NC2CCCCC2)c1C
 : 3.6, 2108, 3.9, 6.8, 0.9, -25.2, -11.7
N/C(CSc1ccccn1)=N\OCc1c(Cl)cccc1Cl
 : 1.7, 4216, 6.1, 6.0, 5.0, 6.7, -8.7
CCOC(=O)c1ccccc1NC(=O)COc1cc(=O)n(CC)c2ccccc12
 : 4.7, 8829, -4.5, 7.4, 14.8, -5.6, -40.5
CC(C)(C)c1ccc(C(=O)Nc2nnc(Cc3c[nH]c4ccccc34)s2)cc1
 : 10.2, 9175, -16.3, -4.8, -2.8, -19.5, -14.5
CC(C)(C)C(=O)Nc1cc2c3c(c1)CC(=O)N3CCC2
 : -0.5, 5402, 2.1, 8.1, -4.6, -0.9, -15.8
COc1ccc(C(=O)Nn2c(SCC(=O)NC3CCCC3)nc3ccccc3c2=O)cc1
 : 7.5, 21985*, -6.0, 8.3, 15.1, 3.7, 42.5
COC(=O)c1c(NC(=O)CN2C(=O)NC(CCc3ccccc3)C2=O)sc2c1CCCCC2 (stereo not drawn)
 : 3.1, 1942, 13.2, 6.9, 8.3, -2.3, -12.9
COc1ccc(OC)c(NC(=O)C(=O)c2cn(CC(=O)N3CCCC3)c3ccccc23)c1
 : 1.1, 4381, -5.6, -17.9, -10.5, 6.3, -3.3
CCOc1ccc(S(=O)(=O)NCCC(=O)NCC(c2ccc(F)cc2)N2CCOCC2)cc1 (stereo not drawn)
 : -1.4, 5283, -1.8, -7.3, 6.9, 1.6, -17.6
CCOC(=O)Cc1csc(C(=NO)C(N)=O)n1
 : 3.2, ., 9.4, 4.0, -8.6, ., .
Cc1cccc(C)c1OCC(O)CN (stereo not drawn)
 : 4.9, 2420, 2.3, ., ., -3.6, -13.0
O=C(COc1ccccc1)NN=Cc1ccc([N+](=O)[O-])o1
 : 13.7, ., 16.3, ., ., ., .
Cc1cccc(Nc2cc(C)nc3ccccc23)c1
 : 3.0, 2873, 1.9, 11.3, 1.5, 6.7, -12.7
Cc1nnc(-c2ccccc2)o1
 : 3.3, 3482, 5.0, 15.9, 8.5, -4.9, -18.6
Cc1c(NC(=O)CSc2nnnn2Cc2ccccc2)c(=O)n(-c2ccccc2)n1C
 : 4.7, 11128, 13.2, 3.2, -0.5, -2.1, -3.5
COc1ccc(Nc2cc(C)c3cc([N+](=O)[O-])ccc3n2)cc1
 : -6.9, 2984, 26.4, 11.6, -2.8, -21.2, -25.2
O=[N+]([O-])c1ccc(OCCOc2ccccc2C=Nn2cnnc2)cc1
 : 13.7, ., -2.6, 3.5, 6.5, ., .
COc1cc(C)c(C=CC(C)=CC=CC(C)=CC(=O)O)c(C)c1C
 : -2.7, ., -0.8, 1.7, 12.3, ., .

Additional structures follow:
Below each SMILES: Sa RN4220 lethal, Bead autofluor, Sa ugtP lethal, Mtb hypoxia inh, Mtb hypoxia inh growth, BJeLR lethal, PrP UTR inh
C=C(C)C(=O)Nc1cccc(C2=NOC3(C2)CC(C(N)=O)N(C(=O)c2ccccc2)C3)c1 (stereo not drawn)
 : 5.3, ., 0.7, 3.9, -1.1, ., .
O=C(NN=Cc1ccccc1)c1[nH]ncc1Br
 : 1.5, ., -0.2, -8.2, -4.3, ., .
O=C(CN1C(=O)COc2ccccc21)N1CCC2(CC1)OCCO2
 : 3.4, 5285, 12.4, 1.6, 3.4, -1.2, -16.4
COc1ccc(S(N)(=O)=O)cc1C(N)=O
 : 1.1, 2466, -0.4, 12.3, 3.2, -1.8, -10.2
CCN(c1ccccc1)S(=O)(=O)c1ccc(OC)c(NC(=O)CNC)c1
 : 7.5, 4567, 11.6, 9.8, -3.9, -11.0, -19.3
COc1ccc(NC(=O)CCSc2ccc(F)cc2)cc1
 : 12.2, 4304, -72.8, 15.7, 0.6, -11.5, -52.4
COc1ccc(CNC(=O)c2ccc(C(C)(C)C)cc2)cc1
 : ., 3125, ., ., ., -8.8, -57.8
CCNC(=O)NC(=O)C(C)OC(=O)c1cc(S(=O)(=O)N2CCCCCC2)ccc1OC (stereo not drawn)
 : 10.5, 3480, 13.1, 2.9, 7.6, 6.1, -7.3
O=C(Cn1c(=O)n(Cc2ccccc2)c(=O)c2ccccc21)NCc1ccco1
 : 2.3, 4297, -1.9, -1.3, 6.9, 11.1, -9.7

Bioassay records deposited in PubChem by several laboratories.
